Screens: PubChem BioAssay, National Center for Advancing Translational Sciences (NCATS)
HPGD inh: blocks human HPGD enzyme activity. P15428. purified HPGD, NADH fluorescence kinetic, PGE2 substrate. Potency, µM, for inactives: at the top dose activity change, negative = inhibition, most hits filed as inhibitors. 4.3% of 150,000 active; active = well fitted inhibition curve with a large enough effect (not every such curve was filed as active); inconclusive = small, poorly fitted or top-dose-only effect, or another doubt; inactive = no such curve, though single readings can be large or run the other way;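 further: top concentration of the series not given in the record; plate controls included wells without enzyme; inactives centre near -10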
Target sequence (P15428 whole entry, looked up): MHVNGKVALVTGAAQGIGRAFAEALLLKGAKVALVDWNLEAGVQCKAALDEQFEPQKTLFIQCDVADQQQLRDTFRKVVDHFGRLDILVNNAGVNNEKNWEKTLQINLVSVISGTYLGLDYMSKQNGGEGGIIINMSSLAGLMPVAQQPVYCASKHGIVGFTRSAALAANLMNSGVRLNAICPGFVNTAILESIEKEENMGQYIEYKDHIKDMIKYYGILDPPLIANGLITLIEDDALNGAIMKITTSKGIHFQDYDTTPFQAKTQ
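NADH formation kinetics: reaction with 30 uM PGE2 and 1 mM NAD+ (final), 20 nM enzyme, Tris-HCl pH 8 with Tween 20, after 15 min compound preincubation at room temperature. Fluorescence change, last versus first of five reads.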
An asterisk follows results filed as active; u = inconclusive; & = joins results of further samples. On the % scale 0 is the no-effect control and ±100 the full control effect; potency means the concentration at half of the fitted maximal effect. This is a subset (hit frequency here may not be typical).

| SMILES | HPGD inh |
| --- | --- |
| CCn1cc(SCC(=O)NCc2ccc3c(c2)OCO3)c2ccccc21 | -5.8% |
| CCOc1ccc(C(=O)N2CCCN(C(=O)c3ccc(OCC)cc3)CC2)cc1 | -8.8% |
| CCOc1ccc(C2NC(=O)c3sc(=S)n(-c4ccccc4)c3N2)cc1 (stereo not given) | u |
| Cc1cc(NS(=O)(=O)c2ccc(NC(=O)c3cc4ccccc4o3)cc2)nc(C)n1 | -16.9% |
| Cc1ccc(NC(=O)c2cccc3c2-c2ccccc2C3=O)cc1C | -18.7% |
| CC(C)C(=O)Nc1nnc(Cc2ccccc2)s1 | -13.8% |
| CCOC(=O)C1CCN(CC(=O)c2c(C)[nH]c3cc(C)ccc23)CC1 | -5.0% |
| COc1ccc(-n2nc([N+](=O)[O-])c(=NCc3cccnc3)n2O)cc1 | -10.1% |
| C=CCOc1c2ccc(C(=O)NCc3ccccc3OC)cc2nn1C | u |
| CCOc1ccc(NC(=O)c2ccncc2)cc1 | -10.1% |
| O=C(NC(=S)Nn1cnc2c(cnn2-c2ccccc2)c1=O)c1ccc(Oc2ccccc2)cc1 | -18.0% |
| O=C(N/N=C/c1cccs1)c1ccccn1 | -16.2% |
| CC(=O)n1cc(Nc2ccccc2C(=O)O)c2ccccc21 | u |
| Cc1[nH]c(=O)c(C#N)cc1-c1ccncc1 | -18.6%&-6.5% |
| Cc1ccc(O)c(C(=O)c2coc(=N)c(C(=O)NC(C)C)c2)c1 | 17.8µM* |
| COC(=O)c1cnc2c(C(F)(F)F)cccc2c1OC | -4.3% |
| Cc1ccc(CNC(=O)CN(C)S(=O)(=O)c2cccc3nsnc23)cc1 | -20.5% |
| O=C(CC12CC3CC(CC(C3)C1)C2)N1CCCC1 | -14.0% |
| COc1ccc(/C=C/c2nc3ccccc3n2Cc2ccc(OC)c(OC)c2)cc1 | u |
| O=C(NC1CCCCC1)N(Cc1nc2ccccc2c(=O)[nH]1)C1CCCC1 | -4.9% |
| COc1ccc(C2=[N+]([O-])C(C)(C)N(O)C2C)cc1 (stereo not given) | -13.8% |
| CCOc1cc(/C=C2\C(=O)N(c3cccc(C(F)(F)F)c3)C(=O)c3ccccc32)ccc1O | u |
| CC(C)(C)NC(=O)CSc1nc(O)cc(=O)n1-c1ccccc1F | -6.4% |
| CCC(CC)c1nnc(NC(=O)/C=C/c2ccco2)s1 | -29.6% |
| CCOC(=O)c1ccc(CNC(=O)CCC(=O)O)cc1 | -10.3% |
| CCOP(=O)(OCC)C(Nc1ccccc1)c1ccc2c(c1)OCO2 (stereo not given) | -16.9% |
| Cc1cc(Cl)c(S(=O)(=O)Nc2ccc3c(c2)OCO3)cc1OCC(=O)NC1CCCCC1 | -18.5% |
| C=CCCC(=O)Nc1nc(C)c(-c2csc(Nc3cccc(OC)c3)n2)s1 | -14.4% |
| Cc1ccc2cc(CN(CCN3CCCC3)C(=O)Nc3ccccc3)c(=O)[nH]c2c1C | -8.4% |
| Cc1ccc(-n2nc(C(=O)O)cc2-c2ccccc2)cc1 | -6.6% |
| CCc1nnc(NC(=O)c2nc3nccc(C)n3n2)s1 | -9.0% |
| COc1cc(OC)cc(C(=O)N[C@H](C(=O)OCC(=O)c2ccc3c(c2)NC(=O)CO3)C(C)C)c1 | -19.5% |
| CCOC(=O)N1CCC(Nc2ncnc3c2cnn3-c2ccccc2)CC1 | -13.8% |
| Cc1nc2cc(-c3sccc3-n3cccc3)nn2c(C)c1C | u |
| CC(NC(=O)C1(c2cccs2)CCOCC1)c1ccccc1 (stereo not given) | -5.2% |
| O=C(COc1ccccc1)Nc1ccccc1NS(=O)(=O)c1cccs1 | -8.6% |
| COC(=O)c1sc(N)c(C(=O)OC)c1COC(=O)CNS(=O)(=O)c1ccc(C)cc1 | -21.1% |
| Nc1ccc(F)cc1F | -10.2% |
| O=C(NNC(=O)C1CC1c1ccccc1)Nc1cccc(Cl)c1 (stereo not given) | 4.8% |
| N#CC(C(=O)NC1CCCCC1)c1nc2ccccc2nc1N1CCN(c2ccccc2F)CC1 (stereo not given) | -19.2% |
| O=C1Nc2ccccc2C(O)(C(=O)NC2CC2)N1c1ccc(Cl)c(Cl)c1 (stereo not given) | -1.5% |
| Clc1ccc(Cl)c(SCCCN2CCNCC2)c1 | 0.8% |
| Cc1ccc(Nc2cc(C)nc3ncnn23)c(Cl)c1 | -6.7% |
| CC(C)c1ccc(C(=O)NC(=S)NCc2cccnc2)cc1 | -12.9% |
| CCOc1cc(CC(=O)N[C@@H](CC(C)C)c2ccccc2N2CCCCC2)ccc1C(=O)O | -3.5% |
| COc1ccc2c(c1)NC(=O)CC(c1ccccc1)=N2 | -22.7% |
| O=C(CSc1ccc2nnc(-c3ccncc3)n2n1)Nc1ccc2c(c1)OCO2 | -19.7% |
| COC(=O)N1CCC2(CCCN(Cc3ccc(C#N)cc3)C2)CC1 | -5.0% |
| COC(=O)c1cccc(C23CC4(C2)[C@H](CN(Cc2ccc(-c5ccccc5)cc2)[C@@H]4c2ccccc2)C3c2ccc(Cl)nc2)c1 (stereo not given in full) | -8.2% |
| C/C(=N\NC(=O)CSc1nc(C)cc(C)n1)c1cccc([N+](=O)[O-])c1 | -3.4% |

The list continues:
| SMILES | HPGD inh |
| --- | --- |
| Cc1ccc(-c2ccc(SCC(=O)Nc3nonc3C)nn2)cc1 | -11.5% |
| COc1ccc(-n2c(SCC(=O)NCCC(C)C)nc3ccsc3c2=O)cc1 | u |
| CCn1c(CCNC(=O)c2ccc(OC)cc2)nnc1SCc1ccc(Cl)cc1Cl | -4.4% |
| CCCCN=C1C([N+](=O)[O-])=CC=C2C1=NC1(CCCCC1)N2O | -10.5% |
| CCOC(=O)C1CCCN(c2c(N3CCC(N4CCCCC4)CC3)c(=O)c2=O)C1 (stereo not given) | -12.9% |
| CC1CC(=S)Nc2ccccc2S1 (stereo not given) | -17.4% |
| CCS(=O)(=O)c1ccc2oc(SCC(=O)NC34CC5CC(CC(C5)C3)C4)nc2c1 | -13.5% |
| Cc1cccc(C(C)(C)C)c1OCCOCCN1CCCC1 | -4.2% |
| O=C(CCNc1ccccc1)c1ccc2c(c1)OCO2 | -18.0% |
| Cc1nc2ncccn2c1-c1csc(NCc2ccco2)n1 | u |
| CCOc1c2ccc(C(=O)NCCCCc3ccccc3)cc2nn1C | u |
| O=C(CSc1nc(-c2ccco2)cc(C(F)(F)F)n1)Nc1cccnc1 | -18.9% |
| O=S(=O)(c1ccc(Cl)c(Cl)c1)N1CCc2nc3ccccc3n2CC1 | -12.5% |
| O=C(COC(=O)C1CC1)NCc1ccccc1Cl | u |
| Fc1ccc(-c2cn3cc(C(F)(F)F)cc(Cl)c3n2)cc1 | -15.1% |
| Cc1ccc(S(=O)(=O)NC(CC(=O)N2CCc3ccccc32)c2ccco2)cc1 (stereo not given) | -3.4% |
| C=CCOC(=O)C1=C(C)Nc2[nH]c(=O)[nH]c(=O)c2C1c1cccc(OC)c1 (stereo not given) | -25.5% |
| COc1ccc(OC)c2c1sc(=NC(=O)c1ccco1)n2C | 7.4% |
| O=C1c2ccccc2C(=O)N1CCCc1nc(-c2ccccc2)no1 | -21.8% |
| O=C1NCCN1Cc1ccc(F)cc1 | -5.1% |
| O=C(NCc1ccc2c(c1)OCO2)c1ccc(S(=O)(=O)NCC2CCCO2)cc1 (stereo not given) | -5.7% |
| C[C@@H]1[C@H](O)[C@@H](C)/C=C/C=C/C=C/C=C/C=C/C=C/C=C/[C@H](O[C@@H]2O[C@H](C)[C@@H](O)[C@H](N)[C@@H]2O)C[C@@H]2O[C@](O)(C[C@@H](O)C[C@@H](O)[C@H](O)CC[C@@H](O)C[C@@H](O)CC(=O)O[C@H]1C)C[C@H](O)[C@H]2C(=O)O | -9.9% |
| COc1ccccc1N1CC(C(=O)OC(C)C(=O)N2CCCc3ccccc32)CC1=O (stereo not given) | -10.6% |
| CCS(=O)(=O)NCCc1ccc(OC)c(OC)c1 | -2.7% |
| Cn1cc(C(=O)NC2CCCCCC2)c(=O)c2cc(S(=O)(=O)N3CCCC3)ccc21 | -14.6% |
| CCOC(=O)C1CCN(C(=O)CCN2C(=O)C3C4C=CC(C4)C3C2=O)CC1 (stereo not given) | -5.2% |
| CCCCOC(=O)Nc1ccc(OC)cc1S(=O)(=O)N1CCOCC1 | -8.4% |
| O=C1CC(c2ccc(O)cc2)Oc2ccccc21 (stereo not given) | -7.7% |
| O=C(COn1nnc2ccc(C(F)(F)F)cc21)Nc1c(Cl)cccc1Cl | -16.5% |
| CCN1CCN(C(=O)CN(c2cccc(Br)c2)S(=O)(=O)c2ccccc2)CC1 | -5.2% |
| Cc1ccccc1-n1c(=O)c2ccccc2n2nnnc12 | 2.6% |
| CSc1nc(=S)n(Cc2ccccc2)c(C)c1C(C)=O | u |
| CCS(=O)(=O)N1CCC(C(=O)NCc2ccccn2)CC1 | -9.9% |
| Cc1ccc(OC(=O)c2cccc([N+](=O)[O-])c2)c(-n2nc3ccccc3n2)c1 | -10.4% |
| O=C1OCC/C1=C\c1ccccc1 | -9.9% |
| C/C=C/C(=O)OCC(=O)Nc1ccc(F)cc1Cl | 0.3% |
| O=C(NC1CCCC1)C(c1ccsc1)N(CCc1ccccc1)C(=O)Cc1cccs1 (stereo not given) | -7.0% |
| O=C(CN1CCCCCC1)Nc1cccc(Br)c1 | -18.6% |
| O=C(CCNS(=O)(=O)c1c(Cl)cccc1Cl)OCC(=O)c1ccccc1F | -15.2% |
| Cc1oc(-c2ccccc2)[n+]([O-])c1C | 7.7% |
| O=C(N/N=C/c1ccc(Br)o1)/C(=C/c1ccc([N+](=O)[O-])cc1)NC(=O)c1ccccc1 | -2.0% |
| CCC(=O)N1CCN(c2ccccc2NC(=O)Cc2ccc(Cl)cc2)CC1 | -11.7% |
| O=C(COC(=O)CCC(=O)c1cccs1)Nc1ccc(Cl)cn1 | u |
| Fc1ccc(Nc2ccnc(Nc3ccc(F)cc3)n2)cc1 | -24.4% |
| COc1cc(C=O)ccc1OCCCOc1ccc([N+](=O)[O-])cc1 | -20.8% |
| CN(C)C(CNC(=O)c1cccc(S(=O)(=O)N(C)C)c1)c1ccccc1 (stereo not given) | -10.5% |
| c1ccc2c(CC3NCCN3)cccc2c1 | -4.9% |
| CC/C(=N\NC(=O)c1ccc2c(c1)OCO2)C12CC3CC(CC(C3)C1)C2 | -10.5% |
| Cc1ccc(NC(=O)CCN2C(=O)c3ccncc3C2=O)cc1 | -6.2% |
| Cc1cc(NS(=O)(=O)c2ccc(NC(=O)c3cc(-c4ccccc4Cl)nc4ccccc34)cc2)no1 | -24.4% |

Following part
| SMILES | HPGD inh |
| --- | --- |
| COc1ccc(NC(=O)C(=O)NCCN2CCN(C(=O)C(c3ccccc3)c3ccccc3)CC2)cc1 | 1.3% |
| O=C(c1ccncc1)N1CCC2(CC1)CCN(c1ccc(-c3ccccc3)cc1)CC2 | -1.7% |
| Cc1csc2nc(CNC(=O)CCC(=O)O)cn12 | -1.5% |
| CN=C1SC(CC(=O)Nc2cccc(C(F)(F)F)c2)C(=O)N1C (stereo not given) | -7.6% |
| CCc1ccc(S(=O)(=O)NCc2cn3ccccc3n2)s1 | -11.2% |
| COc1ccc(NC(=O)N2CC[C@@]3(CCCN(C(C)=O)C3)C2)cc1 | -8.1% |
| COc1ccccc1/C=C/C=N\N1CCN(Cc2ccccc2Cl)CC1 | -9.1% |
| COc1ccc(OCCSc2nnc(CCNC(=O)c3ccc(OC)cc3)n2C)cc1 | -2.4% |
| Nc1nc(SCc2ccccc2)ns1 | -23.8% |
| COc1cccc(CN(CC2CCCO2)S(=O)(=O)c2ccc(S(=O)(=O)NCC3CCCO3)cc2)c1OC (stereo not given) | -23.5% |
| CCN1C(=O)/C(=C/c2cc(C)n(C)c2C)SC1=Nc1ccc(OC)cc1 | -14.2% |
| O=S(=O)(NCCN1CCCC1)c1cccc2cccnc12 | -7.7% |
| CCc1c(C)nc2ncnn2c1N1CCCC(C(=O)NCc2ccc3c(c2)OCO3)C1 (stereo not given) | -17.2% |
| CCOC(=O)c1sc(/N=C/c2c(C)[nH]n(-c3ccccc3)c2=O)c(C#N)c1C | -19.4% |
| O=C(Nc1ccccc1)Nc1nccs1 | -17.7% |
| COCCCNC(=O)CN1C(=O)c2ccccc2C1=O | -3.0% |
| CC(C)OC(=O)CSc1nc2ncc(Cl)cc2[nH]1 | -25.2% |
| Cc1cc(N)ccc1NC(=O)c1ccccc1 | -17.5% |
| O=C(CCCCCn1c(=S)[nH]c2cc3c(cc2c1=O)OCO3)N1CCN(C2CCCCC2)CC1 | -7.8% |
| C=CCOC(=O)C1=C(C)NC(SCC(=O)N(CC)CC)=C(C#N)C1c1ccccc1 (stereo not given) | u |
| CCOc1ccc(Cn2c(O)cc(=O)[nH]c2=O)cc1 | -12.2% |
| COc1ccc(C(=O)OC(C(=O)c2ccc(C)cc2)c2ccccc2)cc1 (stereo not given) | -10.7% |
| CCCNS(=O)(=O)c1ccc(CCC(=O)NCc2ccc3c(c2)OCO3)cc1 | -13.7% |
| C(#Cc1ccc(C#CCN2CCOCC2)cc1)CN1CCOCC1 | -9.5% |
| Cc1cccc(OCC(=O)N2CCN(C(=O)c3cccs3)CC2)c1 | 1.8% |
| CCOc1cc(/C=N/O)ccc1OCc1ccc(C)cc1 | -5.4% |
| CC(C)C(=O)Nc1ccc(C(=O)NN2C(=O)c3ccccc3C2=O)cc1 | -16.8% |
| CCOC(=O)CCCNS(=O)(=O)c1c(C)ccc2nsnc12 | -0.7% |
| CCCCNC(=S)NNC(=O)c1cccnc1 | -7.7% |
| Cn1cnc([N+](=O)[O-])c1Oc1ccccc1 | -9.4% |

3 of the compounds above, field by field:
CCOc1cc(/C=N/O)ccc1OCc1ccc(C)cc1
  HPGD inh: -5.4%

CC(C)C(=O)Nc1ccc(C(=O)NN2C(=O)c3ccccc3C2=O)cc1
  HPGD inh: -16.8%

CCOC(=O)CCCNS(=O)(=O)c1c(C)ccc2nsnc12
  HPGD inh: -0.7%
